Screening results deposited in PubChem by National Center for Advancing Translational Sciences (NCATS).
Lassa entry inh – inhibitors of Lassa virus binding or cell entry; Lassa virus pseudotype entry inhibition, cell reporter; control for the full effect not named in the record; Potency, µM (series often up to 37.9 µM), for inactives: at the highest dose activity change, negative = inhibition, most hits filed as inhibitors; 1.2% of 300,000 active; active means well fitted inhibition curve with a large enough effect; inconclusive means small, poorly fitted or top-dose-only effect, or effect the other way; inactive means flat fitted curve, though single readings scatter; tested in HEK293 cells; also: % is scaled to controls: 0 for no effect and ±100 for the full control effect; nearly all actives have a fitted effect of over 50% in size; luciferase read-out
Cruzain inh noDet – inhibitors of Trypanosoma cruzi cruzain without detergent; 2.3% of 200,000 active; purified cruzain, Z-FR-AMC fluorescence, no detergent; Potency, µM, without a hit: max response, negative = inhibition, most hits filed as inhibitors; active = well fitted curve in the direction sought with a large enough effect; inconclusive = small, poorly fitted or top-dose-only effect, or another doubt; inactive = no such curve, though single readings can be large; an effect the other way counts as inactive or inconclusive;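 also: plate controls were enzyme without inhibitor for no effect and buffer without enzyme for full effect; nearly all actives have a fitted effect of over 40% in size; top concentration of the series not given in the record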
Target sequence (P25779 123-467 limits assumed): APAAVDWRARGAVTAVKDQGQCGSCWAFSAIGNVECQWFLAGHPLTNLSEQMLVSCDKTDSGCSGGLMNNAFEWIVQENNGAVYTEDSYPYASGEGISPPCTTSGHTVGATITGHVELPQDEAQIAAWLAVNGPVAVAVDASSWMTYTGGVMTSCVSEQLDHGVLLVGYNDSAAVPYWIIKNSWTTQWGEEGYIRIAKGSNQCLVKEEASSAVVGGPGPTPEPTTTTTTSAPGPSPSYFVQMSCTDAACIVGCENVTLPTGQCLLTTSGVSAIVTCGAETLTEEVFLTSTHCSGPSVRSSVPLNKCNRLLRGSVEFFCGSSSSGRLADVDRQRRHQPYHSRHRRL
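Purified cruzain at 1.5 nM, pre-incubated 15 min with compound at room temperature in 100 mM sodium acetate pH 5.5, 5 mM DTT, 0.00005% Triton X-100. Reaction started with 2 uM Z-FR-AMC; AMC fluorescence increase over 60 s gives rate.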
StopGo reporter – lowers the luciferase signal of an FMDV 2A StopGo reporter; Potency, µM (doses to about 57.9 µM), for the others: at the highest dose signal change, negative = less light; 1.2% of 410,000 active; AID 1159524; human cells with a luciferase reporter of 2A StopGo recoding; control for the full effect not named in the record; active = well fitted falling curve with a large enough effect; inconclusive = small, poorly fitted or top-dose-only effect; inactive = no such curve, though single readings can be large or run the other way; tested in HEK293T cells; also: % is scaled to controls: 0 for no effect and ±100 for the full control effect; nearly all actives have a fitted effect of over 45% in size; luciferase light after 4 h
Cruzain inh Det – cruzain (T. cruzi) inhibition with detergent; purified cruzain, Z-FR-AMC fluorescence, 0.01% Triton; 0.43% of 200,000 active; Potency, µM, without a hit: max response, negative = inhibition, actives largely listed as inhibitors; AID 1478; active = well fitted curve in the direction sought with a large enough effect; inconclusive = small, poorly fitted or top-dose-only effect, or another doubt; inactive = no such curve, though single readings can be large; an effect the other way counts as inactive or inconclusive;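 also: plate controls were neutral wells for no effect and buffer without enzyme for full effect; nearly all actives have a fitted effect of over 40% in size; top concentration of the series not given in the record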
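15 min RT preincubation of 1.5 nM cruzain with compound, then 2 uM Z-FR-AMC added; kinetic AMC fluorescence, 60 s delta. Triton X-100 0.01%, pH 5.5.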
MARV entry inh – blocks Marburg virus binding to or entry into cells. Marburg virus pseudotyped entry inhibition, cell reporter; control for the full effect not named in the record; about a third of the inactives were read at about 46 µM. Potency, µM (series often up to 37.8 µM), for inactives: at the top dose activity change, negative = inhibition, hits mostly inhibitors. 1.8% of 300,000 active. AID 540276; active = well fitted inhibition curve with a large enough effect; inconclusive = small, poorly fitted or top-dose-only effect, or effect the other way; inactive = flat fitted curve, though single readings scatter; tested in HEK293 cells; about a fifth of its hits are not listed in these tables; also: % is scaled to controls: 0 for no effect and ±100 for the full control effect; luciferase read-out
NS1 function inh – influenza NS1 inhibition | Potency, µM (highest dose often 46.1 µM), for inactives: at the top dose activity, positive = more growth | 0.4% of 270,000 active | AID 2326 | S. cerevisiae slowed by influenza A NS1, growth recovery by OD600; also: actives are rising curves; nearly all actives have a fitted effect of over 50% in size
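Recovery from NS1-induced slow growth read by OD600 in budding yeast switched to galactose assay medium (pH 6.0, -URA) at 1:100 dilution. Compound 23 nl per well; the matching strain lacking NS1 serves as control.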
RE007 growth inh – less growth of the S. pombe RE007 Vpr strain; S. pombe RE007 Vpr strain, BacTiter-Glo ATP luminescence, 24 h; control for the full effect not named in the record; Potency, µM (top dose mostly 92.2 µM), inactives show top-dose activity change, negative = less growth; 0.21% of 360,000 active; AID 651644; active = well fitted falling curve with a large enough effect; inconclusive = small, poorly fitted or top-dose-only effect; inactive = no such curve, though single readings can be large or run the other way;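 also: % is scaled to controls: 0 for no effect and ±100 for the full control effect; nearly all actives have a fitted effect of over 50% in size; the assay follows cell death caused by Vpr and the record does not say whether a fall means rescue or toxicity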
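Fission yeast strain RE007, carrying one chromosomally integrated HIV-1 vpr copy, was seeded at OD 0.01 in PMG+AL medium with 23 nL pinned compound. After 24 h at 30 °C and 99% humidity, viability was read by BacTiter-Glo luminescence.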
SARS PLP yeast – blocks SARS-CoV papain-like protease in a yeast assay | Potency, µM (top dose mostly 32.9 µM), for inactives: top-dose activity, positive = growth rescue | 0.19% of 330,000 active | S. cerevisiae expressing SARS-CoV PLpro, growth rescue; control for the full effect not named in the record | AID 485353; also: 0% is about no effect; nearly all actives have a fitted effect of over 55% in size; growth read by luminescence after 48 h
An asterisk follows results filed as active; ? = inconclusive; . = not tested or not shown; & = joins results of further samples; [ ] = dose if it differs, or a comment. Unless noted, calls follow the shape of the dose curve; as a rule, active means well fitted rising curve with a large enough effect; inconclusive means small, poorly fitted or top-dose-only effect; inactive means no such curve, though single readings can be large or run the other way. Potency is read from the fitted curve at half-maximal effect.

SMILES	Lassa entry inh	Cruzain inh noDet	StopGo reporter	Cruzain inh Det	MARV entry inh	NS1 function inh	RE007 growth inh	SARS PLP yeast
COC(=O)c1ccccc1Oc1ccc(NC(=O)c2ccco2)cc1	.	.	16%	.	.	-51%	13%	-3%
O=C(COc1ccc(Br)cc1Cl)NC1CCN(Cc2ccccc2)CC1	?	.	-22%	.	-19%[46.1 µM]	-21%	-25%	-6%
CC(C)CCNC(=O)CN(Cc1ccco1)C(=O)CCC(=O)Nc1nccs1	-7%[46.1 µM]	.	-9%	.	?	13%	13%	0%
Cc1ccc(N2CC(NC(=O)c3ccc(S(=O)(=O)N4CCCCC4)cc3)CC2=O)cc1 (stereo unspecified)	8%[46.1 µM]	-5%	-26%	-1.0%	.	.	.	.
O=C(NCc1ccc(F)cc1)c1cc(S(=O)(=O)N2CCOCC2)ccc1F	-1%	-3%	2%	0.3%	13%	-6%	7%	0%
CN(C)Cc1c(C#N)c2ccccc2n1C	?	6%	-2%	-1.9%	13%&13%	2%	3%	2%
CC(C)(C)NC(=O)CN(Cc1cccs1)C(=O)C1COc2ccccc2O1 (stereo unspecified)	-20%	-4%	19%	2.2%	0%	-19%	-5%	-11%
Cn1c(=O)c2c(nc(CN3CCN(C(=O)c4ccco4)CC3)n2Cc2cccc(Cl)c2)n(C)c1=O	4%	?	-19%	7.6%	-30%&-30%	-5%	-2%	-1%
Oc1ccc(NC(=S)Nc2ccc(F)cc2)cc1	.	.	20%	.	.	-7%	-6%	-3%
Cc1ccc2[nH]c(=O)c(CN(CCN3CCOCC3)C(=O)Nc3ccccc3F)cc2c1	1%	-8%	0%	0.9%	0%	-24%	0%	6%
O=C(Nc1ccnn1C1CCN(C2CCOCC2)CC1)c1cccc(F)c1	.	.	-18%	.	.	-5%	-10%	0%
CS(=O)(=O)N1CCC(C(=O)NCCC2=CCCCC2)CC1	0%	0%	.	7.1%	?	3%	-16%	9%
CN1C(=O)c2cccc3c(Br)ccc(c23)C1=O	14%	.	-10%	.	?	.	20%	.
CCCc1cc(-c2n[nH]c(C)c2-c2ccc(C(=O)OCC)o2)c(O)cc1O	-23%	9%	?	-12%	-3%&-7%	-9%	-9%	-5%
COc1ccc(N2CC(C(=O)Nc3cccc(S(=O)(=O)N4CCCC4)c3)CC2=O)c(OC)c1 (stereo unspecified)	6%	.	?	.	4%	.	-8%	5%
COc1ccc(OC)c(N=Cc2c(O)[nH]c(=O)[nH]c2=O)c1	.	.	22%	.	.	4%	-15%	-1%
O=C(c1ccccc1Cl)N1CCN(S(=O)(=O)c2cccs2)CC1	17%	.	-30%	.	2%	7%	3%	4%
CC(/C=N/NC(=O)c1nnn(-c2nonc2N)c1C)=C\c1ccccc1	16%	.	10%	.	1%[46.1 µM]	-9%	10%	-4%
COc1cc(C(=O)Nc2nnc(C(C)(C)C)s2)c([N+](=O)[O-])cc1OC	0%	-2%	-16%	-6.2%	8%	10%	-3%	12%
Cc1cc(C)cc(N(C(=O)c2csnn2)C(C(=O)NC(C)(C)C)c2ccncc2)c1 (stereo unspecified)	-3%[46.1 µM]	.	12%	.	1%[46.1 µM]	-1%	-7%	-1%
COc1ccccc1S(=O)(=O)Cc1ccc(C(=O)NCCN2CCCCCC2)o1	.	-10%	-24%	-4.9%	.	9%	-12%	2%
CCCS(=O)(=O)c1ccc(COC(=O)Cc2ccc([N+](=O)[O-])cc2)cc1	.	.	-13%	.	.	22%	-8%	3%
O=C(O)c1ccc(/C=N/Nc2nc3ccccc3[nH]2)cc1	?	.	-22%	.	11%[46.1 µM]	6%	10%	1%
COc1ccccc1CNC(=O)C/C(C)=N/NC(=O)Cc1ccc(Cl)cc1	.	.	0%	.	?	5%	7%	0%
CCOc1cc(C(=O)Nc2cc3c(cc2N2CCCC2)n(C)c(=O)c(=O)n3C)cc(OCC)c1OCC	15%[46.1 µM]	-4%	-3%	-8.6%	-8%[46.1 µM]	.	.	.
CC(=O)C1=C(C)Nc2ncnn2C1c1ccccc1OCc1ccccc1 (stereo unspecified)	0%	-4%	-26%	-0.2%	-13%	-5%	9%	4%
COc1ccc(CCC(=O)NC2=NCCS2)cc1OC	3%	-4%	19%	-2.5%	-1%[46.1 µM]	-17%	-26%	5%
CCOC(=O)C1=C(O)C(=O)N(Cc2cccnc2)C1c1ccc(C)cc1 (stereo unspecified)	28%	.	-18%	.	18%[46.1 µM]	-2%	4%	1%
Cc1ccc(C)c(N2CC(O)(c3cccs3)[N+]3=C2CCCC3)c1 (stereo unspecified)	4%	.	2%	.	14%[46.1 µM]	.	13%	0%
CCOc1ccccc1C=NN=Cc1ccccc1O	5%[46.1 µM]	.	26%	.	24%	.	2%	.
COc1ccc2c(c1)CCCN2C(N)=O	6%	2%	.	6.6%	24%	0%	17%	-2%
O=C(c1ccc(-n2cccn2)cc1)N1CCc2ccccc2C1	-3%[46.1 µM]	.	11%	.	11%[46.1 µM]	-61%	-12%	-2%
Cc1ccc(S(=O)(=O)NC(C)(C)CSc2ccccn2)cc1	4%	7%	-5%	-4.8%	-2%	-8%	2%	-9%
CC(NC(=O)CN(C)CC(=O)Nc1ccc(Cl)c(C(F)(F)F)c1)c1ccccc1 (stereo unspecified)	?	.	?	.	-30%	.	2%	-2%
CC1CN(S(=O)(=O)c2csc(C(=O)Nc3ccccc3)c2)CC(C)O1 (stereo unspecified)	?	.	-28%	.	?	8%	6%	0%
COc1ccc(C)cc1NC(=O)CCCN1C(=O)CCC1=O	17%	12%	22%	-4.1%	6%	-4%	0%	5%
Cc1ccn(C(C)CC(=O)Nc2ccc(-c3ccno3)cc2)n1 (stereo unspecified)	.	.	-16%	.	.	-13%	12%	4%
Cc1cc(C(=O)N/N=C/c2cn[nH]c2-c2ccccc2)cs1	3%	2%	0%	-4.1%	19%	19%	6%	-12%
c1ccc(-n2cnnc2SCc2cn3ccsc3n2)cc1	0%	9%	29%	6.1%	?	0%	0%	14%
CCOc1ccccc1NC(=O)c1ccc2oc(=O)c(S(=O)(=O)c3ccc(F)cc3)cc2c1	-11%[46.1 µM]	-5%	-23%	0.4%	?	.	.	.
CC1=CCC2C(=O)N(c3cccc(C(=O)NC(C)c4ccccc4)c3)C(=O)C2C1 (stereo unspecified)	-2%	.	-11%	.	-13%	-1%	-13%	0%
CCCc1cc(C(=O)Nc2c(C)nn(Cc3ccc(Cl)c(Cl)c3)c2C)no1	?	0%	?	-6.9%	?	.	.	.
COc1ccc(Cl)cc1NC(=O)NCc1ccco1	.	.	12%	.	.	1%	-11%	-1%
O=C(CCN1C(=O)c2ccccc2C1=O)NNC(=O)c1ccc(Cl)cc1Cl	3%	-7%	-17%	0.3%	2%	15%	1%	-2%
Cc1cccc(C)c1OCC(=O)Nc1nonc1-c1ccc(Br)cc1	.	-1%	-4%	-5.2%	0%[46.1 µM]	.	.	.
CCCn1c(=O)c2ccccc2n2c(SCC(=O)N3CCc4ccccc4C3)nnc12	-4%	2%	-1%	-0.7%	7%	-7%	6%	-5%
CC(=O)Nc1ccccc1-c1nc2ccccc2n(CC(=O)Nc2cccc(C)c2C)c1=O	-14%[46.1 µM]	?	0%	0.4%	9%[46.1 µM]	.	.	.
CC(=O)N1CCc2cc(S(=O)(=O)NC(CC(C)C)C(=O)Nc3ccc(C(C)C)cc3)ccc21 (stereo unspecified)	2%[46.1 µM]	13%	27%	-3.6%	-21%[46.1 µM]	.	.	.
Cc1ccc(C)c(NC(=S)N/N=C2\CCc3ccccc32)c1	.	.	9%	.	.	-1%	0%	8%
Cc1c(N=C2Nc3cccc4cccc2c34)c(=O)n(-c2ccccc2)n1C	?	2%	-2%	-3.0%	-1%[46.1 µM]	-7%	-16%&-13%	10%
Cc1cccc(OCCn2c(-c3ccco3)nc3ccccc32)c1	2%	-5%	30%	-9.0%	-3%	-79%	-19%	2%
Cc1noc(C)c1-c1nc(CS(=O)(=O)c2ccccc2)no1	8%	.	16%	.	13%[46.1 µM]	0%	0%	1%
C=C(C)CSc1ncc(-c2cccc(C(F)(F)F)c2)cn1	4%	0%	-14%	-5.2%	-8%	4%	-21%	-6%
O/N=C/CCn1c(=S)sc2ccccc21	1%	-5%	5%	-2.5%	-1%	-3%	-6%	-1%
O=C(CSc1nnc(-c2ccco2)n1CC1CCCO1)NC1CCCC1 (stereo unspecified)	11%	-10%	-13%	-2.6%	?	-1%	0%	5%
CCOc1cc(C(C#N)N2CCOCC2)ccc1OC (stereo unspecified)	18%	2%	-19%	2.4%	-4%	-2%	1%	-2%
Cc1ccc(NC(=O)Cn2cnc3ccccc32)cc1C	-28%	.	?	.	2%[46.1 µM]	.	13%	2%
CSc1ccc(-c2nc3cccc(C)n3c2Nc2ccc3c(c2)OCO3)cc1	?	?	8%	-9.9%	-1%[46.1 µM]	.	.	.
O=C(NC1=NCCS1)c1nc(-c2ccccc2)n(-c2ccccc2)n1	0%	5%	-5%	2.2%	0%	-3%	6%	0%
O=C1C(=O)N(Cc2ccco2)C(c2cccs2)/C1=C(\O)c1cccc([N+](=O)[O-])c1 (stereo unspecified)	.	.	0%	.	.	8%	5%	1%
CCN(CC)C(=O)Cn1c(=O)n(-c2ccccc2)c(=O)n1CC(=O)N(CC)CC	?	6%	.	3.7%	0%	-6%	-3%	10%
O=S(=O)(c1cccc(-c2cn3cc(Cl)ccc3n2)c1)N1CCOCC1	0%	-11%	-7%	0.4%	?	-38%	11%	3%
COc1ccccc1OCCC(=O)OCC(=O)Nc1cc(S(=O)(=O)N(C)C)ccc1Cl	14%	.	32%[activator]	.	11%[46.1 µM]	.	-14%	-3%
